ALR inh: inhibitors of human ALR sulfhydryl oxidase, primary screen, biochemical, H2O2 detection, HRP-luminol luminescence, single point. inhibition, % (test concentration not listed). FAD-linked sulfhydryl oxidase ALR (Homo sapiens), P55789. 290,000 compounds, 3.8% hits. AID 485317, 2010. purified ALR, DTT oxidation;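 active = mean and each replicate at 75% or more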;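 also: stock transfer was 7.5 nL into about 7.5 µL; 0% = neutral wells and 100% = wells with inactivated enzyme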
UCH37 inh: inhibitors of human UCH37 deubiquitinase, primary screen, biochemical, Ub-AMC cleavage, fluorescence; 330,000 compounds, 0.33% hits; purified proteasome/UCH37; inhibition, % (no concentration beside the values);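 active = mean of two replicates above 20%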;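 also: 0% = compound-free wells with enzyme and 100% = wells lacking proteasome; stock transfer was 100 nL into about 20 µL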
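Reagent: Ub-AMC substrate; assay system: Proteasome-associated human UCH37 deubiquitinase; controls: no-proteasome and no-compound wells; read-out: % inhibition of Ub-AMC cleavage fluorescence; timing: 30 min preincubation with enzyme, 25 min cleavage at room temperature; signal: AMC fluorescence from Ub-AMC cleavage, excitation 355 nm, emission 460 nm; buffer or medium: Tris-HCl pH 7.4 plus ovalbumin, ATP-MgCl2, DTT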
FGF22 binding: binders of human FGF22 protein, primary screen, FGF22 synaptogenesis inhibitor project, biophysical, thermal shift, single point; Fibroblast growth factor 22 (Homo sapiens), Q9HCT0; recombinant FGF22 thermal shift, SYPRO orange fluorescence; percent of sucrose octasulfate shift, DMSO zero; calls only at 9.99 µM; 340,000 compounds, 1.5% hits; AID 651658, 2012;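 active = melting point raised past a set limit in the mean and every replicate; three in four hits are not shown here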
HNF4A DNA FP: change in binding of human HNF4A to DNA, primary screen, biochemical, fluorescence polarization, FITC-DNA; AID 1224865, 2016; Hepatocyte nuclear factor 4-alpha (Homo sapiens), P41235; 360,000 compounds, 0.3% hits; 1 h; activity change, % at 10 µM; in the data active = activity change above about 30%, passing the limit was not always enough;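 also: controls were the assay level and a saturating level of protein; the project sought stronger binding though the title names inhibitors; some compounds called inactive have numbers as strong as hits; positive values seem to mean higher polarization but the record does not say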
LANA-H2A inh: blockers of LANA interaction with H2A/H2B – biochemical, FP readout, HTS, primary screen. Protein LANA1 (Human herpesvirus 8 type P (isolate GK18)), Q9QR71. cell-free LANA-H2A/H2B peptide, fluorescence polarization. inhibition, % (test concentration not listed). 320,000 compounds, 0.6% hits. AID 2629, 2010; in the data active = inhibition mostly above about 10%, no sharp cut-off; inactive = mostly below about 6.7%;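 also: stock transfer was 7.5 nL into about 10 µL; 0% = median of vehicle wells and 100% = median of positive control wells; one replicate is shown; the record names a cut of 25% in any replicate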
Target sequence (Q9QR71 whole entry, looked up): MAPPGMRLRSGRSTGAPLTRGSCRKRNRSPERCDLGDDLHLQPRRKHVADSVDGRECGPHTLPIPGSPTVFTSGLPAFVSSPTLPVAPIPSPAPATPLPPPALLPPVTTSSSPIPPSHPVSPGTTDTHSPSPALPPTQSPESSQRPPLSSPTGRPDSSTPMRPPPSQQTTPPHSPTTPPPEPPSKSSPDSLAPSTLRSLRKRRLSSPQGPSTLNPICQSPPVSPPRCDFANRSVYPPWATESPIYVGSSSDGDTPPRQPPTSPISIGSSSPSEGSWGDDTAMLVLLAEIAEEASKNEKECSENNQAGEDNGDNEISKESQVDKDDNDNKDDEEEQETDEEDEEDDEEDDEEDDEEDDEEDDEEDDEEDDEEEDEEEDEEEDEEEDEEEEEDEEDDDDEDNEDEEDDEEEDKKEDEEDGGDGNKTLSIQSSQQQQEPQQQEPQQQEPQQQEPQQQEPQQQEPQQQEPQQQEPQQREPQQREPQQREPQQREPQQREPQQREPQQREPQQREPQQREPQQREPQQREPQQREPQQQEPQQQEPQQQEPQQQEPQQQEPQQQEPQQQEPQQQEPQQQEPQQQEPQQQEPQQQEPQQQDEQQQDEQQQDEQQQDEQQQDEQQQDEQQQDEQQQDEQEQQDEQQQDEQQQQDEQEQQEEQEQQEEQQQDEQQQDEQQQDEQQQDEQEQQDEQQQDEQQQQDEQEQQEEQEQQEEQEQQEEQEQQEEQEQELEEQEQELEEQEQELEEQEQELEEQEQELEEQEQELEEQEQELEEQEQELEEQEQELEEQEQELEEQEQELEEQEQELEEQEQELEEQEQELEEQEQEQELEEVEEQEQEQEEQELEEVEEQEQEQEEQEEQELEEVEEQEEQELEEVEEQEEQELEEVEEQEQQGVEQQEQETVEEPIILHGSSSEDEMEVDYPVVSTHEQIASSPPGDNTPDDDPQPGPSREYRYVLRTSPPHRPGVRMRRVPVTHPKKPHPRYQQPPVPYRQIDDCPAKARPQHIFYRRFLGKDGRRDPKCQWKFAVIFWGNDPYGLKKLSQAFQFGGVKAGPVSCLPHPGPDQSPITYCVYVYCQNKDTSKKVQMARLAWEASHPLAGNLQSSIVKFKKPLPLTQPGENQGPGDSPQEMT
Beta2AR agonist: beta2AR agonists driving receptor internalization, primary screen, cell-based, FAP fluorogen, flow cytometry; Am2.2-beta2AR cells; reference of the scale not given here; response, % (no concentration beside the values); AID 504454, 2011; 340,000 compounds, 0.43% hits;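 active = response above a set limit, near 3 SD of response in nonfluorescent compounds, cut at about 42% in these data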;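 also: stock transfer was 100 nL into about 11 µL; a reference agonist was the positive control; negative values mostly stem from fluorescent compounds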
E coli growth: E. coli growth inhibition, primary screen, OD600. Escherichia coli growth, 23 h; stronger effect = lower value. OD600 absorbance (test concentration not listed). 330,000 compounds, 0.21% hits. AID 1053175, 2014;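 active = OD600 absorbance below the run mean of sample wells minus 3.6 SD, in any replicate, cut at about 0.56 in these data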;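 also: stock transfer was 300 nL into about 60 µL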
An asterisk follows results filed as active; i = inactive; · = no result given. Only part of the results is shown; the hit share may differ from the screen's.

canonical_smiles,ALR inh,UCH37 inh,FGF22 binding,HNF4A DNA FP,LANA-H2A inh,Beta2AR agonist,E coli growth
COc1ccc(CC(=O)N2CCCC(CNC(=O)c3ccccc3Cl)C2)cc1 (stereo unspecified),-4.6,2.3,i,0.6,-0.1,5.7,0.676
CC1CCN(C(=O)COC(=O)c2cc3ccccc3cc2O)CC1,-19.1,-1.9,·,2.1,2.1,3.3,0.716
CC(C)(C)c1ccc(C(=O)CCCSC2=C(C#N)C(c3ccco3)C3=C(CCCC3=O)N2)cc1 (stereo unspecified),3.4,-11.4,·,2.2,-0.7,10.9,0.783
N#CC(=C1CCCC1)c1nc(-c2ccc(Cl)cc2)cs1,36.0,0.9,·,2.6,1.5,-0.6,0.728
COc1ccc(OC)c(/C=N/NC(=O)c2cc3c(OC)cccc3[nH]2)c1,11.3,·,i,-1.5,-3.6,16.2,·
O=C(CN1CCOCC1)NCCC12CC3CC(CC(C3)C1)C2,-3.2,0.4,·,1.8,-1.4,-3.4,0.73
COc1ccccc1CC(NC(C)=O)C(=O)NC1CCN(C(=O)Nc2ccccc2F)CC1 (stereo unspecified),·,2.9,i,-3.7,-1.5,-1.4,0.647
C=CCn1c(N)c(C(=O)Nc2ccccc2OC)sc1=S,97.8*,8.7,·,-0.1,1.6,-4.2,0.701
Cc1ccc2nc(Cl)c(/C=N/NC(=O)c3ccccc3O)cc2c1,96.9*,·,i,-0.7,2.0,-15.5,·
O=C(NCC1COc2ccccc2O1)C1(c2ccccc2)CCCC1 (stereo unspecified),-0.2,0.5,·,3.9,3.2,0.9,0.579
CCN(Cc1ccccc1)C(=O)c1ccc(SC)cc1OC,-4.2,1.7,i,2.5,2.7,-5.0,0.665
Cc1ccccc1NC(=S)N(CCN1CCCCCC1)Cc1cccs1,-4.2,2.3,i,-2.1,-0.5,14.3,0.708
COc1ccc(NC(=O)CN(C)C(=O)CN2C(=O)NC3(CCCCC3)C2=O)cc1,-3.1,-2.0,i,0.7,-4.8,-5.1,0.691
CCCCc1cn([C@@H](CCCCNC(=O)OC(C)(C)C)C(=O)N2CCN(C(=O)OC(C)(C)C)CC2)nn1,3.0,4.8,i,-8.0,2.6,0.6,0.784
COc1ccc(C)cc1NC(=O)CN1C(=O)COc2ccc(S(=O)(=O)N3CCCCCC3)cc21,-7.9,6.6,i,2.8,1.7,8.1,0.693
C#CCOCCOCCOCCNc1nc(N2CCN(C(=O)[C@H]([C@@H](C)CC)n3cc([C@@H](N)CO)nn3)CC2)nc(N2CCN(C(=O)[C@H](CCCCN)n3cc([C@@H](N)C(C)CC)nn3)CC2)n1 (stereo partly specified),-4.2,1.3,i,-1.1,-4.1,4.4,·
Cc1cc(NC(=O)CCC(=O)N(CC(=O)NC2CCCC2)Cc2ccccc2Cl)no1,-3.8,1.7,·,-1.7,0.9,-3.9,0.764
C/C(=C\c1ccccc1)C(=O)c1c(C)cc(C)[nH]c1=O,-1.7,1.0,i,-2.6,-0.5,-8.9,0.702
CS(=O)(=O)c1ccc(C(=O)OC2CCOC2=O)cc1[N+](=O)[O-] (stereo unspecified),94.3*,6.8,i,-3.0,3.5,9.4,0.695
Cn1c(=O)[nH]c(=O)c2c1nc(Br)n2CC(O)COc1ccccc1 (stereo unspecified),9.5,1.3,i,0.0,3.3,-7.6,0.657
Cc1ccc(NC(=O)CN2C(=O)NC(C)(c3ccccc3)C2=O)c(C)c1 (stereo unspecified),5.1,1.6,i,4.3,-0.2,8.2,0.664
COc1cccc(N2CCN(C(=O)c3ccc4ccccc4c3)CC2)c1,·,0.7,i,0.1,·,-2.5,0.632
O=C(O)c1cc(S(=O)(=O)N2CCCCC2)ccc1N1CCOCC1,·,4.7,i,7.8,0.8,-9.5,0.674
O=C(Cc1ccccc1)NCCS(=O)(=O)N1CCN(c2cccc(Cl)c2)CC1,-0.3,1.6,i,2.6,2.5,3.8,0.712

Record cards, as listed above. Order of values: ALR inh | UCH37 inh | FGF22 binding | HNF4A DNA FP | LANA-H2A inh | Beta2AR agonist | E coli growth
O=C(Cc1ccccc1)NCCS(=O)(=O)N1CCN(c2cccc(Cl)c2)CC1 as listed: -0.3 | 1.6 | i | 2.6 | 2.5 | 3.8 | 0.712
Cn1c(=O)[nH]c(=O)c2c1nc(Br)n2CC(O)COc1ccccc1 (stereo unspecified) as listed: 9.5 | 1.3 | i | 0.0 | 3.3 | -7.6 | 0.657

Continuation.
canonical_smiles,ALR inh,UCH37 inh,FGF22 binding,HNF4A DNA FP,LANA-H2A inh,Beta2AR agonist,E coli growth
Cc1nn(C)cc1CN(C)C(=O)c1nn2c(c1Br)NC(c1cccs1)CC2C(F)(F)F (stereo unspecified),-18.7,3.1,i,3.6,2.7,-7.9,0.696
COc1cc(C(=O)Nc2ccc(-c3nnc(-c4ccco4)o3)cc2)cc(OC)c1OC,2.1,-24.0,·,2.8,0.5,13.6,0.731
Cc1c(NC(=O)c2cc(-n3cnnc3)ccc2Cl)cccc1-c1nc2ccccc2o1,-0.6,5.4,·,0.5,-1.7,-4.4,0.804
O=C(CSc1nnnn1C1CC2C=CC1C2)Nc1ccc(C(=O)O)cc1 (stereo unspecified),·,-1.2,i,-0.9,·,-5.2,0.656
COCCCNC(=O)CCc1nc(-c2ccccc2)no1,31.0,3.3,·,-0.3,-0.4,-11.0,0.683
CCC(NC(=O)c1ccccc1NC(=O)c1ccccc1)C(=O)OC (stereo unspecified),-17.1,3.3,i,-1.7,-0.1,-5.5,0.693
COC(=O)C1=NN(C(=O)c2cccc(Br)c2)C(O)(c2ccc(Cl)cc2)C1 (stereo unspecified),8.9,-0.3,i,9.0,-3.7,-52.0,0.709
O=C(N/N=C/c1cccc([N+](=O)[O-])c1)c1ccccc1-n1cccc1,-0.4,·,i,-0.8,-3.9,-0.1,·
O=C(/C=C/c1ccc([N+](=O)[O-])cc1)c1cccs1,8.4,3.2,i,0.2,-0.8,6.0,0.7
O=C(NCCS(=O)(=O)NCCc1ccccc1)c1ccccc1,10.5,·,i,1.7,-1.4,-2.9,·
CC(=O)NS(=O)(=O)c1ccc(NC(=O)CSc2ccc(Cl)cc2)cc1,-15.5,0.5,i,·,7.5,·,0.662
COc1cccc(C(=O)Nc2ccc(S(=O)(=O)Nc3cc(C)nc(C)n3)cc2)c1,-2.6,1.7,i,-11.6,3.4,2.2,0.642
Cc1ccc(OCC(=O)Nc2cccc3c2CCCC3)cc1C,-22.9,0.3,·,2.0,1.8,0.1,0.746
CCCC1=[N+](CC(=O)c2ccc(Br)cc2)CCn2cccc21,-0.8,·,i,7.4,-6.7,13.5,·
Cc1ccc(-c2cc3nc(-c4ccc(Br)cc4)cc(N)n3n2)cc1,-4.1,-45.3,·,1.8,-6.1,5.0,0.721
Clc1ccc(C2=CSC3=NCCN23)c(Cl)c1,5.2,4.6,i,5.0,-0.8,0.8,0.696
CC(=O)N1CCN=C1SCc1ccc(Br)cc1,96.5*,9.2,i,-2.0,-0.4,-26.6,0.724
COc1ccc(CCC(=O)Nc2nccs2)cc1OC,-6.8,1.2,i,2.1,-1.5,2.0,0.676
O=C(Nc1ccc(Cl)c(NC(=O)c2cccs2)c1)c1ccco1,46.5,2.8,i,-1.1,5.9,-2.4,0.651
Cc1cc(/C=C(\C#N)C(=O)O)c(C)n1CCC(C)C,14.1,16.0,i,0.0,-3.7,1.0,0.663
CCCn1c(SCC(=O)Nc2ccc3c(c2)OCO3)nc2c1c(=O)n(C)c(=O)n2C,-3.5,0.8,·,8.9,-3.8,-12.2,0.68
COc1ccc(C(CNC(=O)C(C)Oc2ccc(Br)cc2)N2CCOCC2)cc1 (stereo unspecified),0.9,0.1,i,4.2,-2.8,-4.9,0.62
O=C(NCc1ccc(Cl)c(Cl)c1)c1ccc2c(c1)OCO2,-2.5,3.9,i,3.9,0.9,-6.8,0.683
COc1ccc(-c2ccc(CCC(=O)O)n2CC2CCCO2)cc1 (stereo unspecified),44.8,-101.5,i,-5.5,5.8,15.1,0.703
CCOC(=O)N1CCN(S(=O)(=O)c2ccc(C)c(C)c2C)CC1,0.1,1.8,·,-1.4,-1.8,-5.5,0.77
CN1N=C(c2ccc(F)c(F)c2)CSC1=NCc1ccccc1,4.7,3.4,i,-2.3,1.2,-0.2,0.718
Cc1[nH]c2ccccc2c(=O)c1CN(C)Cc1ccccc1,-2.3,2.3,·,-1.5,-5.0,-7.2,0.695
Cc1nc2c(C#N)cnn2c2c1CCNN2C,7.6,-2.7,i,1.1,-4.1,-0.1,0.685
CCCOc1ccc2c3c(c(=O)oc2c1)CCCC3,-0.4,-30.2,·,1.6,0.3,-3.1,0.728
O=C1CS/C(=N\NC(=O)c2ccccc2)N1,6.7,7.3,i,4.8,0.9,4.5,0.627
CCN(C(=O)COC(=O)c1cnc(C)cn1)C1CCS(=O)(=O)C1 (stereo unspecified),-0.9,1.0,i,-0.5,0.2,-1.1,0.615
CCN1CCN(CC(=O)Nc2cc3c(cc2C(C)=O)OCO3)CC1,-1.1,-2.7,i,1.4,-5.2,-4.2,0.718
COc1ccccc1-c1csc(-n2ncc(C#N)c2N)n1,·,·,i,240.6,5.3,83.6*,·
CCn1c(SCc2nc3ccccc3c(=O)[nH]2)nc2ccccc2c1=O,-3.0,-2.3,·,-2.2,2.0,-3.6,0.728
O=C(c1ccccc1)[C@@H]1[C@@H]2C(=O)N(c3ccc(F)cc3)C(=O)[C@@H]2C2CCCN21 (stereo partly specified),2.7,0.6,i,-6.2,11.5,2.2,0.62
COc1ccc(C)cc1NC(=O)C(OC(=O)CNC(=O)c1cc(C)cc(C)c1)c1ccccc1 (stereo unspecified),0.5,0.3,i,-1.3,-3.6,9.0,0.761
CCOC(=O)N1CCN(CC(O)COc2ccccc2C(C)CC)CC1 (stereo unspecified),2.2,1.8,·,2.2,-1.5,1.8,0.789
O=C(c1ccc(CS(=O)(=O)c2ccc(Br)cc2)o1)N1CCOCC1,-22.8,2.1,i,2.8,-1.0,4.2,0.752
NN1C(=O)c2cccc3c(C(=O)O)ccc(c23)C1=O,-2.8,14.6,·,2.3,5.8,2.2,0.648
Cc1ccc(S(=O)(=O)N2CCCC2CNC(=O)C(=O)NC2CC2)cc1 (stereo unspecified),-1.0,1.9,i,-0.5,-1.9,-27.4,0.66
CCN(CC)S(=O)(=O)c1ccc(C(=O)Nc2ccc3c(c2)OCO3)cc1,-12.3,5.2,i,2.2,-5.1,14.4,0.668
Cc1ccc2c(c1)N(Cc1ccncc1)C(=O)C(C)O2 (stereo unspecified),0.8,2.3,·,-0.8,0.8,16.4,0.646
COc1ccc(C(=O)C[n+]2ccc3c(c2)nc(-c2ccc(OC)cc2OC)n3C)cc1,-0.7,0.4,·,-0.4,3.8,-2.3,0.739
CC(=C1C(=O)c2ccccc2C1=O)N1CCc2ccccc2C1,-6.9,10.8,i,2.3,1.7,-3.7,0.708
Cc1cnc(NC(=O)COc2cccc3c2OC(C)(C)C3)s1,-32.8,0.5,·,0.9,0.4,0.2,0.679
CCOC(=O)[C@H]1NN=C(C(=O)OC)[C@@H]1c1ccccc1,·,4.8,i,-2.3,2.4,11.8,0.716
NS(=O)(=O)c1ccc(CNC(=O)/C=C/c2ccc(S(=O)(=O)N3CCOCC3)cc2)cc1,-2.4,1.2,i,2.1,-2.2,-6.1,0.692
O=C(COC(=O)c1ccco1)NCC1CCCO1 (stereo unspecified),-8.7,4.8,·,2.4,1.4,-8.8,0.677
